Vaccinia inh: Vaccinia orthopox stage-specific inhibition; Vaccinia-infected cells, mCherry/Venus stage reporter fluorescence; hits give low values; some inactives read as strong as hits; activity change (mCherry), % (no concentration beside the values); actives 0.01% (n = 89,000);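 active means mCherry past -33% and 40 or more points under the early reporter, replicates agreeing; inconclusive means past -33% without that gap or agreement; tested in A549 cells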;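 further: scaled between vehicle wells and reference inhibitor wells; 23 nL library stock went into each well; one replicate is shown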
Vaccinia inh Venus: second read-out of Vaccinia inh, no call of its own (marks repeat the call); activity change (Venus), %; measured here: Venus reporter, other viral stage;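 negative = less Venus signal; first of two replicates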
Starred values were filed as active, the others as inactive; ? = inconclusive; . = no result given; & = joins results of further samples. The list is partial. The share of hits here may be higher or lower than overall.

SMILES	Vaccinia inh	Vaccinia inh Venus
COCC(=O)N1[C@@H]2c3ccc(/C=C/c4ccccc4)c(=O)n3C[C@H]1[C@H](CO)[C@H]2C(=O)N1CCCCC1	10	4
C[C@H](CO)N1C[C@H](C)[C@H](CN(C)C)Oc2ncc(-c3cccc(F)c3)cc2C1=O	14&14	7&22
CS(=O)(=O)N1[C@H](C#N)[C@@H](c2ccc(/C=C/c3ccccc3)cc2)[C@H]1CO	-6	-8
O=C(Cc1ccccn1)N[C@H]1CC[C@H](CCNS(=O)(=O)c2cccc(F)c2)O[C@@H]1CO	-1	5
C[C@@H]1CN([C@@H](C)CO)S(=O)(=O)c2ccc(C3=CCCCC3)cc2O[C@@H]1CN(C)C(=O)Cc1cccnc1	-12	-11
Cc1noc(C)c1NC(=O)N(C)C[C@@H]1Oc2ccc(N(C)C)cc2CC(=O)N([C@H](C)CO)C[C@H]1C	-3	10
Cc1noc(C)c1S(=O)(=O)Nc1ccc2c(c1)C(=O)N([C@@H](C)CO)C[C@H](C)[C@@H](CN(C)S(=O)(=O)c1ccc(Cl)cc1)O2	14	6
C[C@@H]1CN([C@@H](C)CO)C(=O)c2cc(NS(=O)(=O)c3cn(C)cn3)ccc2O[C@H]1CN(C)S(=O)(=O)c1ccc(Cl)cc1	8	9
CN(C)CC(=O)Nc1ccc2c(c1)[C@@H]1C[C@@H](CC(=O)N(C)C)O[C@@H](CO)[C@@H]1O2	5	8
CNC(=O)C[C@H]1CC[C@H]2[C@@H](COC[C@H](O)CN2Cc2ccccc2F)O1	16	8
C[C@H](CO)N1C[C@H](C)[C@@H](CN(C)Cc2ccccc2F)Oc2cc(C#CC3CC3)ccc2S1(=O)=O	-35	-18
C[C@H](CO)N1C[C@H](C)[C@H](CN(C)S(C)(=O)=O)Oc2ncc(-c3cc4ccccc4o3)cc2C1=O	-7	-1
C[C@H]1CCCCO[C@@H](CN(C)Cc2ccccc2)[C@@H](C)CN([C@@H](C)CO)C(=O)c2cc(NC(=O)Cc3ccccc3)ccc2O1	?	.
Cc1ccc(S(=O)(=O)N(C)C[C@@H]2Oc3ccc(NC(=O)CCC(F)(F)F)cc3C(=O)N([C@@H](C)CO)C[C@H]2C)cc1	-7	-5
CC(C)NC(=O)Nc1ccc2c(c1)C(=O)N([C@@H](C)CO)C[C@@H](C)[C@H](CN(C)C(=O)Nc1cccc3ccccc13)O2	23	20
C[C@@H]1CN([C@@H](C)CO)C(=O)c2cc(-c3cccc(C#N)c3)cnc2O[C@@H]1CN(C)C	3	4
C[C@@H]1CN([C@H](C)CO)C(=O)c2cccc(NC(=O)Nc3ccc4c(c3)OCO4)c2O[C@H]1CN(C)Cc1ccccc1	-11	-12
Cc1ccc(S(=O)(=O)Nc2cccc3c2O[C@@H](CN(C)C(=O)Nc2ccccc2)[C@@H](C)CN([C@@H](C)CO)C3=O)cc1	5	4
C[C@@H]1CN([C@H](C)CO)C(=O)c2c(c3ccccc3n2C)-c2ccccc2CO[C@H]1CN(C)C(=O)c1ccncc1	1	-7
CN1c2ccc(-c3ccc(C#N)cc3)cc2[C@H]2[C@H](CCN2C(=O)NC2CCCC2)[C@@H]1CO	?	.
O=C(c1ccccn1)N1CC2(C1)[C@H](c1ccccc1)[C@H](CO)N2C(=O)C1CCCC1	-14	-9
C[C@@H]1CCCCO[C@@H](CN(C)CC2CC2)[C@@H](C)CN([C@H](C)CO)C(=O)c2cc(NC(=O)NC3CCCCC3)ccc2O1	16	6
CCCNC(=O)C[C@H]1C[C@@H]2c3cc(NC(=O)Nc4ccc(OC)cc4)ccc3O[C@@H]2[C@@H](CO)O1	12	8
O=C(C[C@@H]1C[C@@H]2c3cc(NC(=O)Cc4ccncc4)ccc3O[C@@H]2[C@H](CO)O1)NCCN1CCCCC1	0	6
CS(=O)(=O)N1Cc2cc(C(=O)O)nc(-c3cccc(-c4ccccc4F)c3)c2[C@@H]1CCO	14	9
SMILES	Vaccinia inh	Vaccinia inh Venus
C[C@@H]1CN([C@@H](C)CO)C(=O)c2cc(NC(=O)CCCN(C)C)ccc2O[C@@H]1CN(C)S(=O)(=O)c1ccccc1	2	2
C[C@H]1CN([C@@H](C)CO)S(=O)(=O)c2ccc(-c3cncnc3)cc2O[C@H]1CN(C)Cc1cccnc1	13	5
C[C@@H]1CN([C@H](C)CO)C(=O)c2cc(NS(=O)(=O)c3ccc(Cl)cc3)ccc2O[C@@H]1CN(C)S(=O)(=O)c1cccs1	-6	0
O=C(Nc1ccc(F)cc1)N1CC(=O)N2[C@H](C1)[C@@H](c1ccc(-c3ccccc3)cc1)[C@@H]2CO	?	.
O=C(C[C@H]1CC[C@H]2[C@@H](COC[C@H](O)CN2C(=O)Nc2ccc(C(F)(F)F)cc2)O1)NCC1CCCCC1	?	.
COc1ccc(CN(C)C[C@H]2Oc3ccc(NS(=O)(=O)c4cccs4)cc3CC(=O)N([C@@H](C)CO)C[C@@H]2C)cc1	1	-3
COc1ccc(C(=O)Nc2ccc3c(c2)C(=O)N(C)C[C@H](OC)[C@@H](C)CN(C)[C@@H](C)CO3)cc1	-7	-2
CS(=O)(=O)N1CC(=O)N2[C@H](CO)[C@H](c3ccc(C#Cc4cccc(F)c4)cc3)[C@@H]2C1	-17	-15
O=C(CCN1CCCCC1)N[C@@H]1CC[C@@H](CCn2cc(-c3cccc(F)c3)nn2)O[C@H]1CO	2	4
CCc1cnc(N2[C@H](C#N)[C@@H](c3ccc(C4=CCCCC4)cc3)[C@@H]2CO)s1	-8	-8
CCNC(=O)C[C@H]1CC[C@H]2[C@H](COc3ccc(NC(=O)Nc4c(C)noc4C)cc3C(=O)N2C)O1	6	2
CN(C)CC(=O)N1[C@H](C#N)[C@@H](c2ccc(-c3ccccc3F)cc2)[C@H]1CO	-1	-1
CCC(=O)N1CC2(C1)[C@H](c1ccc(-c3ccccc3OC)cc1)[C@H](CO)N2C(C)=O	11	14
Cc1ccc(-c2ccccc2[C@@H]2[C@H](C#N)N(S(C)(=O)=O)[C@H]2CO)cc1	7	9
Cc1noc(C)c1NC(=O)Nc1cccc2c1O[C@@H](CN(C)C(=O)NC(C)C)[C@@H](C)CN([C@@H](C)CO)C2=O	12	6
O=C(C[C@H]1CC[C@@H]2[C@H](COC[C@H](O)CN2Cc2cccc(C(F)(F)F)c2)O1)NCc1ccc(Cl)cc1	?	.
C[C@H](CO)N1C[C@H](C)[C@H](CN(C)C(=O)Nc2ccc3c(c2)OCO3)Oc2ncc(-c3cc4ccccc4o3)cc2C1=O	?	.
C[C@@H]1CN([C@H](C)CO)C(=O)c2cc(NC(=O)CCN3CCOCC3)ccc2O[C@@H]1CN(C)S(=O)(=O)c1ccccc1	-12	-8
CC=Cc1ccc2n(c1=O)C[C@@H]1[C@@H](CO)[C@H](C(=O)N3CCc4ccccc4C3)N(C)[C@H]21 (mixture of isomers)	-16	-13
COc1cccc(NC(=O)N(C)C[C@@H]2OCc3ccccc3-c3ccccc3C(=O)N([C@H](C)CO)C[C@@H]2C)c1	8	1
C[C@H](CO)N1C[C@H](C)[C@H](CN(C)Cc2ccccc2)Oc2ncc(C#CCN(C)C)cc2C1=O	12&28	1&9
O=C(C[C@@H]1CC[C@H](NS(=O)(=O)c2ccccc2F)[C@H](CO)O1)NCCCN1CCOCC1	5	3
C[C@@H]1CN([C@H](C)CO)C(=O)c2cc(NC(=O)C3CC3)ccc2O[C@H]1CN(C)C(=O)Nc1ccccc1	16	9
CN(C)C(=O)C[C@@H]1CC[C@H](NC(=O)c2ccc(F)cc2)[C@@H](CO)O1	7	2
C[C@@H]1CN([C@H](C)CO)C(=O)c2cc(NC(=O)Cc3cn(C)c4ccccc34)ccc2O[C@H]1CN(C)Cc1ccc(Cl)c(Cl)c1	?	.
SMILES	Vaccinia inh	Vaccinia inh Venus
C[C@@H]1CCCCO[C@@H](CN(C)C(=O)Nc2ccc(C(F)(F)F)cc2)[C@H](C)CN([C@@H](C)CO)C(=O)c2cc(NC(=O)Nc3cccc4ccccc34)ccc2O1	-3	10
COc1cccc(S(=O)(=O)N[C@@H]2CC[C@H](CC(=O)NC3CCC3)O[C@@H]2CO)c1	4	7
C[C@@H]1CN([C@H](C)CO)S(=O)(=O)c2ccc(C#CCN(C)C)cc2O[C@H]1CN(C)C(=O)CN(C)C	-6	-10
O=C(C[C@@H]1CC[C@H](NC(=O)Cc2cccnc2)[C@@H](CO)O1)Nc1ccccc1	5	-4
COc1ccccc1-c1ccc2c(c1)O[C@H](CN(C)C(=O)c1ccncc1)[C@@H](C)CN([C@H](C)CO)S2(=O)=O	7	3
C/C=C/c1ccc([C@H]2[C@@H](CO)N3C(=O)CN(Cc4ccc(F)cc4)C[C@@H]23)cc1	11	14
C[C@@H]1CN([C@@H](C)CO)C(=O)c2cc(NC(=O)CCCN(C)C)ccc2O[C@H]1CN(C)S(=O)(=O)c1ccc(F)cc1	7	-4
COc1cccc(C(=O)N2C[C@H]3[C@@H](c4ccccc42)[C@H](CO)N3Cc2ccccc2F)c1	2	1
C[C@@H]1CN([C@@H](C)CO)C(=O)Cc2cc(NC(=O)C3CC3)ccc2O[C@H]1CN(C)CC1CCCCC1	-1	-3
CC(C)c1cn(CC[C@H]2CC[C@H](N)[C@@H](CO)O2)nn1	0	9
O=C(C1CC1)N1CC2(C1)[C@H](c1ccccc1)[C@@H](CO)N2C(=O)c1cccnc1	-1	0
Cc1noc(C)c1S(=O)(=O)Nc1ccc2c(c1)C(=O)N([C@@H](C)CO)C[C@H](C)[C@@H](CN(C)S(=O)(=O)c1ccccc1)OCCCC[C@@H](C)O2	?	.
CN1CCN(C(=O)C[C@H]2CC[C@@H]3[C@@H](COc4ccc(NC(=O)c5ccc(F)c(F)c5)cc4C(=O)N3C)O2)CC1	-2	2
O=C(C[C@@H]1C[C@H]2c3cc(NC(=O)NC4CCCCC4)ccc3O[C@H]2[C@@H](CO)O1)NCCc1ccccc1	19	14
CC(C)N(C[C@H]1[C@@H](c2ccccc2)[C@@H](CO)N1CC1CC1)C(=O)C1CCC1	1	-4
CCC(=O)N[C@H]1CC[C@H](CCNC(=O)Nc2ccc(C(F)(F)F)cc2)O[C@@H]1CO	-15	-3
CCN1[C@@H]2c3ccc(C4=CCCCC4)c(=O)n3C[C@H]1[C@H](CO)[C@H]2C(=O)NCc1ccccn1	-3	-1
CCCNC(=O)N1CC2(C1)[C@H](c1ccccc1)[C@H](CO)N2C(=O)C1CCCC1	10	10
C[C@@H]1CCCCO[C@@H](CN(C)Cc2ccc(C(=O)O)cc2)[C@@H](C)CN([C@H](C)CO)C(=O)c2cc(NC(=O)Nc3ccc(C(F)(F)F)cc3)ccc2O1	17	12
O=C(NC[C@@H]1[C@@H](c2ccccc2)[C@@H](CO)N1Cc1cccnc1)c1ccccn1	7	7
C[C@@H]1CN([C@H](C)CO)C(=O)Cc2cc(NC(=O)CCCCCC(=O)Nc3ccccc3N)ccc2O[C@H]1CN(C)CC1CCCCC1	?	.
CN1C(=O)c2cc(NC(=O)Cc3cccs3)ccc2OC[C@H]2O[C@@H](CC(=O)O)CC[C@@H]21	6	6
C[C@@H](O)C#Cc1ccc([C@@H]2[C@H](CO)N3CCCCN(S(=O)(=O)c4ccccc4)C[C@@H]23)cc1	0	-1
C[C@@H]1CN([C@@H](C)CO)C(=O)Cc2cc(NS(=O)(=O)c3cn(C)cn3)ccc2O[C@H]1CN(C)S(=O)(=O)c1ccc(F)cc1	5	2
COc1ccc(CNC(=O)C[C@H]2C=C[C@H](NC(=O)c3ccc4c(c3)OCO4)[C@H](CO)O2)cc1	-1	-6
SMILES	Vaccinia inh	Vaccinia inh Venus
O=C(CN1CCOCC1)N[C@@H]1CC[C@H](CCNC(=O)C2CCCC2)O[C@H]1CO	0	11
C[C@@H]1CN([C@H](C)CO)C(=O)c2cc(NC(=O)C3CC3)ccc2O[C@@H]1CN(C)C(=O)Nc1ccc(C(F)(F)F)cc1	-10	-10
C[C@@H]1CN([C@H](C)CO)C(=O)Cc2cc(NS(=O)(=O)c3cccs3)ccc2O[C@H]1CN(C)Cc1ccc(C(=O)O)cc1	5	5
COc1ccc(NC(=O)N(C)C[C@H]2Oc3ccc(NC(=O)Cc4cn(C)c5ccccc45)cc3CC(=O)N([C@@H](C)CO)C[C@@H]2C)cc1	3	7
CN(C)CCCNC(=O)C[C@H]1C=C[C@@H](NS(=O)(=O)c2ccccc2)[C@@H](CO)O1	2	-3
C[C@@H]1CN([C@@H](C)CO)C(=O)Cc2cc(NS(=O)(=O)c3ccc(Cl)cc3)ccc2O[C@H]1CN(C)Cc1ccc(C(=O)O)cc1	9	20

Reformatted: entries from further up.
Structure | Vaccinia inh | Vaccinia inh Venus
CN1C(=O)c2cc(NC(=O)Cc3cccs3)ccc2OC[C@H]2O[C@@H](CC(=O)O)CC[C@@H]21 | 6 | 6
C[C@@H](O)C#Cc1ccc([C@@H]2[C@H](CO)N3CCCCN(S(=O)(=O)c4ccccc4)C[C@@H]23)cc1 | 0 | -1
C[C@@H]1CN([C@@H](C)CO)C(=O)Cc2cc(NS(=O)(=O)c3cn(C)cn3)ccc2O[C@H]1CN(C)S(=O)(=O)c1ccc(F)cc1 | 5 | 2
COc1ccc(CNC(=O)C[C@H]2C=C[C@H](NC(=O)c3ccc4c(c3)OCO4)[C@H](CO)O2)cc1 | -1 | -6
O=C(CN1CCOCC1)N[C@@H]1CC[C@H](CCNC(=O)C2CCCC2)O[C@H]1CO | 0 | 11
C[C@@H]1CN([C@H](C)CO)C(=O)c2cc(NC(=O)C3CC3)ccc2O[C@@H]1CN(C)C(=O)Nc1ccc(C(F)(F)F)cc1 | -10 | -10
C[C@@H]1CN([C@H](C)CO)C(=O)Cc2cc(NS(=O)(=O)c3cccs3)ccc2O[C@H]1CN(C)Cc1ccc(C(=O)O)cc1 | 5 | 5
COc1ccc(NC(=O)N(C)C[C@H]2Oc3ccc(NC(=O)Cc4cn(C)c5ccccc45)cc3CC(=O)N([C@@H](C)CO)C[C@@H]2C)cc1 | 3 | 7
CN(C)CCCNC(=O)C[C@H]1C=C[C@@H](NS(=O)(=O)c2ccccc2)[C@@H](CO)O1 | 2 | -3
C[C@@H]1CN([C@@H](C)CO)C(=O)Cc2cc(NS(=O)(=O)c3ccc(Cl)cc3)ccc2O[C@H]1CN(C)Cc1ccc(C(=O)O)cc1 | 9 | 20

Screening results: PubChem, Broad Institute
